# RN4220 kill = S. aureus RN4220 growth inhibition; OD600, 16 h; 330,000 tested, 0.33% active; AID 1259311; inhibition, % (test concentration not listed);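 active = z-score of -3 or lower and OD600 up to 0.18 on both plates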;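 also: plate controls were untreated cells for no effect and reference antibiotic for full effect; stock transfer was 100 nL into about 80 µL; one replicate is shown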
# PrP 5UTR inh = suppresses PrP 5' UTR mRNA reporter expression. cell-based PrP 5' UTR mRNA reporter, plate reader. inhibition, % (test concentration not listed). 340,000 tested, 0.35% active. AID 488862;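 active = every replicate at 50% or more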;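 also: 0 = median of the neutral control wells; tested in H4 reporter cells; numbers are from one replicate; inactives centre near -14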
# ugtP null kill = kills S. aureus RN4220 lacking UgtP; S. aureus RN4220 ugtP deletion, OD600 growth, 16 h; some inactives read as strong as hits; AID 1259309; growth inhibition, % (test concentration not listed); 330,000 tested, 0.54% active;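 active = z-score under -3 and OD600 up to 0.15 on both plates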;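 also: plate controls were untreated wells for no effect and antibiotic for full effect; wells of about 80 µL received 100 nL stock; the first replicate is given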
# Mtb hypoxia inh = Mtb hypoxia fluorescent reporter inhibition. fluorescence inhibition, % (no concentration beside the values). M. tuberculosis hypoxia-regulated fluorescent reporter, fluorescence. 300,000 tested, 0.1% active;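 active = 35 to 45% if threefold the growth effect, above 45% if 1.5-fold the growth effect; inactive = the rest, general growth blockers included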;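 also: wells of about 50 µL received 100 nL stock; 0% = vehicle wells and 100% = reference inhibitor wells; whole bacteria with a GFP reporter of the hypoxia response; strong numbers were not always called active; many hits fall short of the cut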
# BJeLR viability = BJeLR cell viability loss; BJeLR (HRASV12) viability, CellTiter-Glo ATP luminescence, 48 h; reference of the scale not given here; inhibition, % (no concentration beside the values); 300,000 tested, 0.17% active;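 active = replicate mean above 50%; inconclusive = above 50% but judged a plate artefact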;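 also: 50 nL library stock added to about 25 µL; numbers are from one replicate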
# Bead autofluor = flagged as autofluorescent in microsphere protease counterscreen; compound autofluorescence counterscreen, microsphere flow cytometry; active compounds read high; fluorescence intensity (no concentration beside the values); 360,000 tested, 3.1% active; AID 624483;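 active = at least 3 SD above the mean of all compounds, about 16000 in these data; inconclusive = too few beads counted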;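 also: 100 nL of 1 mM stock went into each well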
# Mtb hypoxia inh growth = second read-out of Mtb hypoxia inh, no call of its own (marks repeat the call); growth inhibition, %; measured here: M. tuberculosis growth (absorbance);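 0% = vehicle and 100% = reference antibiotic; read after six days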
# The depositor's hits bear a star; ? = inconclusive; . = no result given.
molecule	RN4220 kill	PrP 5UTR inh	ugtP null kill	Mtb hypoxia inh	Mtb hypoxia inh growth	BJeLR viability	Bead autofluor
N#C/C(C(=O)NCc1ccccc1)=C1/N=C(NC(=O)c2ccco2)c2ccccc21	3.2	-37.3	-1.5	1.1	7.0	-2.9	5309
O=[N+]([O-])c1ccccc1CSc1nnc2ccccn12	-1.9	-39.4	-0.5	-9.7	-10.8	-5.7	3977
NC(=O)c1nnn(-c2nonc2N)c1-c1ccc([N+](=O)[O-])cc1	1.5	-13.4	6.7	8.1	19.7	3.4	3205
CNc1nccc(-c2ccc(F)cc2)c1C#N	8.8	-108.8	-4.0	15.9	10.7	-3.1	3331
CC1(C)Cc2cccc(OCC(=O)Nc3cc(C(F)(F)F)ccc3N3CCOCC3)c2O1	4.2	-18.9	0.1	.	.	-10.5	4487
NS(=O)(=O)c1ccc(CCNC(=O)CSc2nc3ccsc3c(=O)n2CC2CCC(C(=O)O)CC2)cc1 (stereo not drawn)	1.0	-28.6	2.7	-4.7	-5.9	-1.4	4473
CCNC(=O)Nc1ccc(S(=O)(=O)Nc2cnc(C)nc2C)cc1	0.3	-21.0	0.7	0.1	-12.3	-3.7	5793
CC(Nc1ccc2c(c1)OCCO2)C(=O)N1CCc2ccccc21 (stereo not drawn)	4.2	-26.6	4.2	12.2	-1.8	-0.4	2764
CCc1ccc(NC(=O)c2sc3nc4n(c(=O)c3c2C)CCC4)cc1	1.2	-32.4	-3.9	-7.9	2.9	-10.8	3711
CN(C)c1ccc(C#Cc2ccc3cc(CCO)oc(=O)c3c2)cc1	-8.0	-41.4	-5.0	14.6	6.6	.	4140
CCCCNC(=O)COC(=O)c1ccc(C)c(NC(=O)c2ccco2)c1	3.4	-18.9	6.8	6.6	0.2	-6.5	3075
O=C(c1cccs1)N1N=C(c2ccccc2)CC1c1ccccc1O (stereo not drawn)	5.0	-16.7	-26.0	5.8	0.5	-1.5	3624
CCOc1cc(NC(=S)NCc2ccccc2)c(OCC)cc1NC(=O)C(C)C	0.8	-27.0	3.0	-10.2	-13.9	2.2	5130
Cc1ccccc1/C=C1\CCCc2ccccc2C1=O	9.5	-95.4	45.1	13.7	14.8	7.4	8969
CC(=O)C(=NNc1ccc(Cl)cc1Cl)Sc1cccc2cccnc12	5.7	.	85.0*	8.0	3.3	.	.
O=C1CCCCN1CCCC(=O)N1CCCC(Nc2ccc(F)cc2)C1 (stereo not drawn)	-2.6	8.1	-1.0	-1.1	-6.0	-6.2	4468

# Profiles as entered above. Order of screens: RN4220 kill	PrP 5UTR inh	ugtP null kill	Mtb hypoxia inh	Mtb hypoxia inh growth	BJeLR viability	Bead autofluor
# CCCCNC(=O)COC(=O)c1ccc(C)c(NC(=O)c2ccco2)c1 as listed: 3.4	-18.9	6.8	6.6	0.2	-6.5	3075
# Cc1ccccc1/C=C1\CCCc2ccccc2C1=O as listed: 9.5	-95.4	45.1	13.7	14.8	7.4	8969

# Next part:
molecule	RN4220 kill	PrP 5UTR inh	ugtP null kill	Mtb hypoxia inh	Mtb hypoxia inh growth	BJeLR viability	Bead autofluor
Cc1ccc(/C=C/C(=O)Nc2sc3c(c2C#N)CCCC3)o1	2.9	-21.2	10.8	12.4	13.8	-4.9	1954
Cc1ccc(C(=O)C2=C(O)C(=O)N(Cc3ccco3)C2c2cccc(Cl)c2)o1 (stereo not drawn)	.	-10.5	.	.	.	1.6	5745
O=C(CNCc1cccs1)Nc1ccc(OC(F)(F)F)cc1	3.3	-32.4	6.4	-7.9	-3.9	-7.5	3558
O=C1CC(N2CCC(c3nc4ccccc4o3)CC2)C(=O)N1 (stereo not drawn)	4.4	-15.5	13.7	4.3	13.5	-1.2	4659
CC(=O)c1nn(-c2cccc(C(F)(F)F)c2)c(=O)[nH]c1=O	1.0	-24.4	17.6	9.7	6.1	-0.3	3631
CN1CCN(C(=O)c2ccccc2NC(=O)c2sc3ccccc3c2Cl)CC1	4.6	-4.9	15.6	12.5	13.3	-8.1	3469
COc1ccc(Br)cc1C(=O)Nc1cc(C)cc(C)c1	0.1	-10.3	9.4	.	.	1.3	2705
CCOC(=O)N1CCC(NC(=O)c2ccc3c(c2)ncn3C2CCCC2)CC1	3.9	-33.5	3.9	-0.6	4.2	4.2	11462
CCN(C(=O)COC(=O)c1ccc(Cl)cc1N)C1CCCCC1	-7.6	-11.0	-2.5	-7.6	-9.1	-5.6	4692
O=C(NCc1nnc(SCC(=O)N2CCCC2)o1)c1ccc(F)cc1	-0.9	-7.1	0.4	6.1	-1.1	-1.5	6947
COCCCNC(=S)NN=Cc1ccc2c(c1)OCO2	6.2	.	-2.4	7.5	5.4	.	.
O=C(CCN1C(=O)C2C3C=CC(C3)C2C1=O)Nc1ccccc1 (stereo not drawn)	0.7	-30.4	-2.7	-5.9	-3.6	-6.8	2021
O=C(CN1C(=O)NC(c2ccc(F)cc2)C1=O)Nc1ccc2c(c1)OCCO2 (stereo not drawn)	0.0	-16.1	0.4	-6.2	-2.1	.	?
NS(=O)(=O)c1cccc(NC(=O)c2cccc(-c3ccc(O)cc3)c2)c1	-2.0	-12.0	5.3	19.3	2.1	-11.2	5976
O=C(Nc1cc(Cl)ccc1C(=O)O)c1ccc(CN2C(=O)c3ccccc3C2=O)cc1	.	-14.5	.	.	.	-16.3	3807
O=C(O)C1(c2ccccc2)CCN(S(=O)(=O)c2ccc(Br)cc2)CC1	5.9	-3.3	3.9	8.3	-3.5	-8.2	3727
Cc1cc(=O)oc2cc(N3C(=O)CC(Cc4ccccc4)C3=O)ccc12 (stereo not drawn)	4.4	-14.8	8.2	-7.9	-5.9	-9.9	4179
Cc1ccc(-c2nnc(SCC(=O)Nc3cccnc3Cl)n2N)cc1	4.3	-21.9	2.5	-1.4	-0.8	.	8860
O=C(O)COc1ccc(Oc2ccccc2)cc1	2.7	-16.0	-2.1	0.0	-0.4	-4.9	2855
COc1cc(/C=C(\C#N)c2ccccn2)ccc1OCC(=O)Nc1cccc(C(F)(F)F)c1	21.0	-16.3	2.1	8.3	0.1	-10.9	2019
COc1cc(C(=O)OC(C)C(=O)NC(=O)NC2CCCCC2)ccc1OC(F)F (stereo not drawn)	52.2	-15.3	90.9*	3.8	1.6	.	2897
CCc1cccc(C)c1NC(=O)CN(C)Cc1ccc(Br)cc1	14.9	-15.5	5.1	1.3	6.6	8.5	3190
Cc1nn(CCC(N)=S)c2nc(-c3cccs3)cc(C(F)(F)F)c12	0.0	-18.6	-18.1	4.0	5.2	-4.6	2447
Cc1c(CCOC(=O)c2cc([N+](=O)[O-])cc([N+](=O)[O-])c2)sc[n+]1CCCCS(=O)(=O)[O-]	5.2	-2.8	11.0	11.3	2.5	-11.1	4183
O=C(NC1CCCC1)C(c1ccc(Cl)cc1)N1CCOCC1 (stereo not drawn)	1.6	-26.9	5.4	8.9	5.2	-0.2	5407
O=C(O)C(=O)/C(=C\c1ccc(Cl)cc1)c1ccc2ccccc2n1	3.5	-40.5	-5.0	1.3	0.7	9.5	3389
C/C(N)=C(/C#N)C(=O)COC(=O)CC1CCCC1	0.7	-16.4	5.6	.	.	15.1	2363
O=C(COC(=O)c1ccco1)Nc1nnc(-c2ccccc2)o1	11.7	7.7	8.9	-1.8	4.4	10.0	?
O=C(CCN1CCN(CCO)CC1)Nc1ccc(F)c(F)c1	4.3	-10.8	1.0	5.1	7.3	2.7	3888
CC(C)CCNC(=O)Cc1c(C(=O)O)[nH]c2ccc(Cl)cc12	1.4	-28.0	-7.7	.	.	5.6	4616
CON=Cc1cn(-c2ccc(Cl)cc2)nn1	6.1	.	1.5	13.4	11.9	.	.
COCCn1nnnc1C(C(C)C)N1CCC(Cc2ccccc2)CC1 (stereo not drawn)	-6.3	-35.6	34.8	2.2	-6.3	0.4	10613
COc1c2ccc(C(=O)NCc3cc(C(F)(F)F)cc(C(F)(F)F)c3)cc2nn1C	0.9	-15.9	0.9	0.7	0.8	0.5	3639
COC(=O)c1[nH]c2ccc(C)cc2c1NC(=O)c1ccccc1[N+](=O)[O-]	-1.4	-7.9	4.1	7.6	0.6	-11.7	2180
Cc1ccc(S(=O)(=O)N2CCN(Cc3nnc(-c4c(-c5ccccc5)noc4C)o3)CC2)cc1	-2.7	-19.3	-3.6	9.9	3.4	.	5609
CC(=NNC(N)=O)c1cc(Cl)cc(Cl)c1O	-0.7	.	-4.1	13.0	2.1	.	.
CCOC(=O)N1CCN(C(=O)C2CCN(C(=O)Nc3ccccc3)CC2)CC1	4.2	4.6	-0.7	-0.7	7.5	.	3846
CCOc1cc(CNCCSc2nnnn2C)cc(Br)c1OCc1ccccc1F	3.0	-16.2	3.9	3.3	7.9	-10.6	10769
O=C(Cn1nc(-c2ccccc2)ccc1=O)N1CCOCC1	-0.6	-43.5	5.6	5.4	-2.3	-7.0	4476
COc1ccccc1C1=Nn2c(nnc2C2CCCCC2)SC1	0.0	-5.6	-0.4	.	.	.	3124
CCc1nn2c(=O)cc(COC(=O)c3cc(Cl)c(OC)c(OC)c3)nc2s1	1.2	-16.3	-1.8	5.6	-3.6	.	4192
CCOC(=O)N1CCN(C(=O)CCc2ccccc2)CC1	1.9	-17.6	1.8	12.3	17.4	-2.9	4111
COc1ccc(C(=O)NN=C(C)c2ccc3c(c2)C2C=CCC2C(c2ccccc2)N3)cc1 (stereo not drawn)	10.6	.	-14.6	0.4	11.1	.	.
COc1ccc(C(=O)NNC(=O)c2ccc(C)cc2)cc1S(=O)(=O)N1CCCC1	-0.4	-7.9	2.1	8.2	-4.0	-11.9	5238
CCOC(=O)CN(C(=O)Cn1nnc2ccccc21)C(C(=O)NCCOC)c1ccccc1 (stereo not drawn)	1.3	-7.6	6.8	.	.	0.2	3895
Cc1nn(-c2ccccc2)c2sc(C(=O)OCc3nnc(-c4ccccc4)o3)cc12	1.6	-26.2	-13.2	.	.	3.3	3033
Cc1cccc(N2CC(C(=O)Nc3ccc4c(c3)OCO4)CC2=O)c1C (stereo not drawn)	5.1	-12.8	0.2	1.8	7.3	-6.8	4488
O=C(N=C1c2ccccc2CN1c1ccccc1)Nc1ccccc1	6.3	.	-4.4	5.0	1.0	.	.
Cc1cccc(C)c1NC(=O)C(c1ccccc1)N1CC(=O)Nc2ccccc21 (stereo not drawn)	8.6	-13.0	8.7	6.8	3.8	0.9	6220
COc1cc(C2=NOC(C(=O)Nc3ccc(C)cc3)C2)cc(OC)c1OC (stereo not drawn)	0.2	-15.8	3.1	4.2	3.2	-4.9	19324*
CC(=O)c1ccc(S(=O)(=O)N2CCN(CC(=O)Nc3ccnn3C3CCCC3)CC2)cc1	5.1	-13.2	4.1	5.9	0.1	.	4065
C=C(C)Cn1c(SCC(=O)O)nnc1-c1ccccc1	3.4	-37.8	2.1	19.4	5.1	4.5	9791
CCS(=O)(=O)NCc1cn2ccsc2n1	1.3	-10.9	6.5	7.6	6.7	14.2	.
Cc1nn(CC(=O)NCCC2=CCCCC2)c(C)c1S(=O)(=O)N(C)C	7.8	-18.1	3.2	-4.1	-1.7	.	3902
C/C(=N/NC(=O)c1cccs1)c1ccc(N2CCOCC2)cc1	.	-40.0	.	.	.	-11.9	2093
Cc1cc(C)c2[nH]c(=O)c(CN(CC3CCCO3)C(=S)Nc3ccccc3)cc2c1 (stereo not drawn)	0.8	-17.9	2.8	-4.3	-9.0	3.6	2475

# Next section:
molecule	RN4220 kill	PrP 5UTR inh	ugtP null kill	Mtb hypoxia inh	Mtb hypoxia inh growth	BJeLR viability	Bead autofluor
CC(C)COc1ccc(C(=O)Nc2ccc(SC(F)F)cc2)cc1	7.7	-55.7	-0.6	14.9	-1.4	.	2203
Cc1ccc(OCCOC(=O)Nc2ccccc2)cc1	8.9	-5.8	1.7	5.4	-4.2	-1.0	2086
OCC[C@@H]1C[C@@H](O)[C@H](O)[C@]2(CCCc3ccccc3O2)O1	.	-13.0	.	.	.	-8.5	3022
CCOC(=O)Cc1csc(NN=Cc2ccccc2)n1	1.6	.	-2.0	7.2	-5.0	.	.
Cc1cc(C)n2nc(N)c(N=Nc3cccc(Cl)c3)c2n1	32.7	-10.6	51.9	-1.0	-6.5	-1.6	2093
CS(=O)(=O)N(CC(=O)N1CCOCC1)c1cccc(F)c1	4.8	-65.3	7.7	14.8	15.2	7.7	4094

# Assay outcomes (PubChem BioAssay)
